Tgondii IFNg – T. gondii growth inhibition with IFN-gamma, primary screen, cell-based; Toxoplasma gondii growth in IFN-gamma-treated host cells; hits give low values; reference of the scale not given here; activity change, negative = inhibition, %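 (about 20 µM by stock and volumes)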; 3.8% of 69,000 active;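 active means below -70%; inconclusive means fit judged invalid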;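 further: host cells are HeLa cells infected with Toxoplasma gondii; parasite growth read as luciferase light; one replicate is shown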
* = called active by the depositor; ? = inconclusive; & = joins results of further samples.

compound,Tgondii IFNg
CCOC(=O)Nc1cc(C(F)(F)F)cc(C(F)(F)F)c1,62
CC(C)NC(=O)N1[C@H](C#N)[C@H](c2ccccc2-c2ccc(F)cc2)[C@@H]1CO,-28
O=C(C[C@@H]1CC[C@H]2NC[C@@H](O)COC[C@@H]2O1)Nc1ccc(-c2ccccc2)cc1,-32
Cc1csc(NC(=O)CSc2nccc(-c3ccccc3)n2)n1,-10
O=C(Nc1cnc2n1CCCC2)c1coc2c1C(=O)CCC2,-2
O=S(=O)(CC(O)CS(=O)(=O)c1ccc(Br)cc1)c1ccccc1 (stereo not given),-15
O=C1N(Cc2ccccc2)C(=O)C2(CCN(Cc3c[nH]c4ccccc34)CC2)N1CCc1ccccc1,-77*
Nc1nnc(SCc2cc(F)cc3c2OCOC3)s1,-27
COc1cccc(C(CNS(=O)(=O)c2ccc3oc(=O)[nH]c3c2)N2CCCC2)c1 (stereo not given),4
COc1ccc(-n2ccnc2-c2ccc(C#CC(C)(C)O)cc2)cn1,7
Cc1oc(-c2ccc(NC(=O)c3ccc(Cl)cc3)cc2)nc1Cn1cccn1,-85*
CCN(CC)Cc1cnc2n1CCN(c1ncccn1)CC2,0
CCCN1C[C@@H](C)[C@@H](OC)CN(C)C(=O)c2cc(NS(=O)(=O)c3ccccc3)ccc2OC[C@H]1C,0
Cc1cccc(-c2cnc(C)nc2C2CCCN(C(=O)/C=C/c3cc(F)ccc3F)C2)c1 (stereo not given),-73*
CC(=O)Cc1nsc(NC(=O)c2ccoc2COc2ccc(C)cc2)n1,18

Next records follow.
compound,Tgondii IFNg
COc1cccc(NC(=O)Cn2c(=O)cc(C(=O)N3CCOCC3)c3ccccc32)c1,9
Cc1csc([C@H]2C[C@H]3CCN(Cc4ccoc4)C[C@@H]3O2)n1,-6
COc1ccc(S(=O)(=O)N(C)C[C@@H]2Oc3ccc(N(C)C)cc3CC(=O)N([C@@H](C)CO)C[C@@H]2C)cc1,-5
CN1c2ccc(C#Cc3ccccc3F)cc2[C@H]2[C@H](CCN2C(=O)c2cnccn2)[C@H]1CO,15
COc1cc(NC(C)CCCN)c2ncccc2c1 (stereo not given),28&21
CC(C)CCNC(=O)c1cncc(NS(=O)(=O)c2ccc(Cl)cc2)c1,-36
CC(=O)OC[C@H]1O[C@@H](Sc2cccc3cccnc23)[C@H](OC(C)=O)[C@@H](OC(C)=O)[C@H]1OC(C)=O,4
COCCN1C(=O)CCc2cc(NS(=O)(=O)c3ccccc3F)ccc21,29
c1cc2c(cc1C13CC4CC(CC(C4)C1)C3)c1c3n2CCNC3CCC1 (stereo not given),?
O=C(c1cnccn1)N1CC(=O)N2[C@H](CO)[C@@H](c3ccc(-c4cccc(F)c4)cc3)[C@@H]2C1,-52
CN(Cc1cccc(O)c1)S(=O)(=O)NCc1ccccc1,4
O=C(C1CCCN(C2CCCCC2)C1)N(CCO)Cc1ccco1 (stereo not given),-10
Cn1ccnc1C(=O)N[C@@H]1CN(C(N)=O)[C@H]2CCCO[C@@H]12,-7
Cc1[nH]cnc1-c1nccn1C(C)c1cnn(C)c1 (stereo not given),7
O=C(NCCCn1ccnc1)C12CC3CC(CC(C3)C1)C2,56

Next entries:
compound,Tgondii IFNg
Cc1ccc(NC(=O)Cn2c(=O)cc(C(=O)N3CCCC3)c3ccccc32)cc1C,9
Cn1ccnc1-c1nccn1C1CCCC1,-4
CCn1nnc(-c2ccccc2NS(=O)(=O)c2ccc(Cl)cc2)n1,6
O=C(CCc1c[nH]c2ccccc12)N1CCN(C(=O)c2cc(-c3ccncc3)n[nH]2)CC1,-20
COCC#Cc1ccc([C@@H]2[C@H]3CN(C(=O)NC4CCCC4)CCCCN3[C@H]2CO)cc1,-49
Cc1oc(C2CCN(C(=O)Nc3ccccc3F)CC2)nc1C(=O)N(C)C,-15
Cc1nc2ncc(-c3cc(NCc4ccccn4)nc4[nH]ccc34)cc2[nH]1,-1
CCCNC(=O)c1cc2c(c3ccccc3n2CC2CC2)n1C(=O)N(C)C,-4
COCCN1CCO[C@@H]2CN(Cc3cnn(C)c3)C[C@@H]21,0
COCCN1C(=O)CCc2cc(NC(=O)c3ccc(F)cc3Cl)ccc21,7
COc1ccccc1N1CC(NC(=O)C2(c3cc(C)cc(C)c3)CCOCC2)CC1=O (stereo not given),-2
CN(C)C(=O)c1ccc(-c2ccc(C3[C@@H]4CN(Cc5cncnc5)C[C@H]3N4)cc2)cc1 (stereo not given in full),3&22
COc1cccc(NC(=O)C(=O)NCCc2csc(-c3cccc(F)c3)n2)c1,-46
O=C(Nc1ccccc1F)N1CCCC1c1n[nH]c(Cc2ccc(F)cc2)n1 (stereo not given),-43
Cn1ccnc1SCC(=O)c1ccc(Cl)cc1,33

Next part
compound,Tgondii IFNg
Cc1ncc(-c2ccccn2)c(CN(C)C(=O)Cc2sc(C)nc2C)n1,163
CC(C)c1ccc(C(=O)c2cccs2)c(SCCCCCCCCN(C)C)n1,-3
O=C(c1ccccn1)N1CC[C@@H]2[C@H](CO)Nc3ccc(Br)cc3[C@@H]21,27
COCC(=O)N1CCc2ccc(=O)n(Cc3cccnc3)c2CC1,-66
CC(c1cccc(-c2nccn2Cc2ccoc2)c1)N(C)C (stereo not given),137
O=c1ccc2c(n1CC1CC1)CCN(Cc1ccco1)CC2,7
Cc1ccc(C)c(NC(=O)c2nnn(Cc3nc(-c4ccc(Cl)cc4)oc3C)c2C)c1,27
O=C(CC1N=C2c3ccccc3N=C(SCc3cc(=O)n4ccccc4n3)N2C1=O)NCc1ccc2c(c1)OCO2 (stereo not given),25
Cc1ccc(O)c(-c2cc(-c3ccccc3C)[nH]n2)c1,-43
O=S(=O)(Cc1cc2c(F)c(F)c(F)c(F)c2o1)c1cccc(C(F)(F)F)c1,-3
Cc1cc2cccc(NC(=O)CC(C)n3ccnc3)c2o1 (stereo not given),-56
CN1CCN2CCN(C(=O)c3ccc(-c4ccccc4)[nH]3)CC2C1=O (stereo not given),29
CC(C)CCN1C(=O)C2(NCCc3c2[nH]c2ccccc32)c2ccccc21 (stereo not given),-25
CCCCCn1c(SCc2cc(=O)[nH]c(C34CC5CC(CC(C5)C3)C4)n2)n[nH]c1=O,-66
CN1C(=O)c2cc(NC(=O)c3ccc4c(c3)OCO4)ccc2OC[C@@H]2O[C@H](CC(=O)O)CC[C@@H]21,2

New compounds follow
compound,Tgondii IFNg
CCn1nnc2c(NCCn3ccc4ccccc43)ncnc21,4
CCN1c2cc(C)ccc2-n2cccc2C12CCN(C(=O)Nc1ccc(Br)cc1)CC2,148
COc1ccc(-c2nc(NCc3ccc(Cl)cc3)c3ccccc3n2)cc1,-31
CCCCC(=O)N1CCC2(CC1)Nc1cc(OC)ccc1-n1cccc12,-16
CCCCC1CCC(C(=O)Nc2cc(C)nn2-c2ncnc3c2cnn3-c2ccc(F)cc2)CC1 (stereo not given),29
Cc1noc(C)c1S(=O)(=O)N1CC(c2cccnc2)C1,7
COc1ccccc1-c1cc(C(=O)O)cc(S(=O)(=O)N2CCN(C)CC2)c1,129
CCC(=O)N1C[C@H]2[C@@H](c3ccccc31)[C@@H](CO)N2C(=O)CC1CC1,-1
CCn1c(CC2CCN(Cc3ccncc3Cl)CC2)n[nH]c1=O,20
O=C(C[C@H]1CC[C@H]2[C@@H](COC[C@@H](O)CN2C(=O)Nc2ccc(Cl)cc2)O1)NCC1CCCCC1,4
CN(C)S(=O)(=O)c1ccc2c(c1)cc(C(=O)NCCCc1ccccc1)n2Cc1ccncc1,-45
O=C(CSc1nnc(-c2ccncc2)o1)c1ccccc1,28
CCc1nc(C)c(C(=O)NCc2csc(-c3ncccn3)n2)s1,?
Cc1cnn(Cc2cccc(Cl)c2)c1NC(=O)C1=NNC(=O)CC1,20
Cc1nc(=O)[nH]c(C)c1CCC(=O)N1CCCC2(CN(C)C(=O)O2)C1 (stereo not given),22

Further structures follow.
compound,Tgondii IFNg
O=C(c1ccco1)N1CCC(c2nc3ccc(Nc4ccccc4)cn3n2)CC1,-21
O=C(NCc1nc(-c2ccccc2Cl)no1)C1Cc2cc(Cl)ccc2O1 (stereo not given),41
CCc1ccc2c(c1)cc(S(=O)(=O)c1ccccc1)c(=O)n2CC(=O)NC1CCCC1,-21
CCCN(C)c1ccc(C(=O)N2CCC(N3CCOCC3)CC2)cn1,95
c1ccc(-c2cnn3cc(CN4CC(n5cccn5)C4)cnc23)cc1,73
CCOc1ccc(-c2nc(Cn3nnc(C(=O)Nc4cccc(SC)c4)c3C)c(C)o2)cc1,2
CCn1nc(C)c(NC(=O)CNC(c2nccn2C)C(C)C)c1C (stereo not given),42
O=C(C1CCOCC1)N1C[C@@H]2[C@H](c3ccccc31)[C@@H](CO)N2C(=O)Cc1ccccn1,11
c1nc2c(c(C3CCOC3)n1)CCN(Cc1ccoc1)CC2 (stereo not given),9
CCOc1ccc(NC(=O)CN2C(=O)CCc3cc(S(=O)(=O)N4CCCC4)ccc32)cc1,32
O=C(Nc1ccccc1)c1c(O)c2cccnc2n(-c2ccc(F)cc2)c1=O,16
FC(F)(F)c1cc(-c2noc(-c3ccc4c(c3)CCO4)n2)cc(C(F)(F)F)c1,-12
CCCNC(=O)c1nc2c(o1)CN(CC1CC1)C2,128
O=S(=O)(NC1CCCCC1Sc1ncccn1)c1ccc(Cl)cc1 (stereo not given),-1
CCC(C)N(Cc1sccc1C)C(=O)CC1CCOCC1 (stereo not given),0

The list continues.
compound,Tgondii IFNg
Cc1ccc(NC(=O)c2nnn(Cc3nc(-c4ccccc4C)oc3C)c2C)c(C)c1,106
Cn1ncc2c(=O)n(CC(=O)N3CCN(c4ccccc4C(F)(F)F)CC3)cnc21,-10
CC(C)n1cnnc1CN(C)Cc1ccc2c(c1)OC(F)(F)O2,7
COc1ccccc1NC(=O)Cc1nnc(SCc2nc3ccccc3c(=O)[nH]2)n1C,24
CCn1c(CNC(=O)C2CCC2)nc2c1CN(S(=O)(=O)c1ccc(F)cc1)CC2,36
CCOc1ccccc1NC(=O)c1nnn(Cc2nc(-c3cccc(Cl)c3)oc2C)c1C,-52
C=C(C)Cn1nc(C)c(CN(C)CCN2CCCCC2)c1C,25
CCOc1ccc(-c2nc(Cn3ccn4nc(-c5ccc(CC)cc5)cc4c3=O)c(C)o2)cc1,37
CC(C)c1cn(CC[C@@H]2CC[C@H](NS(=O)(=O)c3ccc(F)cc3)[C@@H](CO)O2)nn1,-30
N#Cc1ccc(-c2ccc([C@H]3[C@H](CO)N4C(=O)CNC[C@@H]34)cc2)cc1,3
COc1ccc(N(C)C(=O)c2nc(-c3cccc(F)c3)n3c2CCCCC3)c(OC)c1,168
CCCCNC(=O)CC1N=C2c3ccccc3N=C(SCc3ccccc3Cl)N2C1=O (stereo not given),-9
COc1ccc(C(=O)NCC2OCCc3ccccc32)cc1 (stereo not given),81
Cc1cc2ccccc2n1CCC(=O)NCCN(C)S(C)(=O)=O,4
COc1ccc(C2CCCN2C(=O)c2ccc(=O)n(CC(=O)Nc3nccs3)c2)cc1 (stereo not given),3

Of the compounds above, 4 have a CF3 group:
compound,Tgondii IFNg
CCOC(=O)Nc1cc(C(F)(F)F)cc(C(F)(F)F)c1,62
O=S(=O)(Cc1cc2c(F)c(F)c(F)c(F)c2o1)c1cccc(C(F)(F)F)c1,-3
FC(F)(F)c1cc(-c2noc(-c3ccc4c(c3)CCO4)n2)cc(C(F)(F)F)c1,-12
Cn1ncc2c(=O)n(CC(=O)N3CCN(c4ccccc4C(F)(F)F)CC3)cnc21,-10

(continued)
compound,Tgondii IFNg
COCC(=O)N1CCC2(CCCN(c3ncccn3)C2)CC1,-6
CC(C)N1CC(C(=O)N(C)C)C2(CCc3ccccc3C2O)C1 (stereo not given),83
Fc1cnc(N2CCO[C@H]3CN(Cc4ccc(Cl)c(F)c4)C[C@@H]32)nc1,-4
CS(=O)(=O)NCc1cnc2n1CCN(CC1CCOC1)CC2 (stereo not given),-1
COc1ccccc1C(=O)N1C[C@H]2[C@@H](c3ccccc31)[C@H](CO)N2C(=O)Cc1ccccc1,-4
O=C(Cn1c(=O)cc(C(=O)N2CCCCC2)c2ccccc21)Nc1cc(F)ccc1F,-5
COc1ccc(S(=O)(=O)N(C)C[C@H]2Oc3ccc(N(C)C)cc3CC(=O)N([C@H](C)CO)C[C@@H]2C)cc1,10
Cc1nc2nc(Cc3ccc(Cl)cc3)[nH]n2c(=O)c1Cc1ccccc1,5
O=C(NCc1cccnc1Oc1ccccc1F)c1ccc(CO)o1,-6
CS(=O)(=O)N1CCC2(CC1)CN(Cc1nccs1)CCO2,1
Cc1cc(S(=O)(=O)Nc2ccc3c(c2)CCC(=O)N3CC(C)C)ccc1F,-97*
Cc1noc(C)c1S(=O)(=O)N1CCCCC1,-20
CCOC(=O)c1[nH]c2ccc(F)cc2c1N,41
CCS(=O)(=O)N1CC[C@@H]2CO[C@H](CN3CCN(C)CC3)[C@@H]2C1,0
CN1CCN(CC2CC2)C2(CCN(C(=O)c3ccc4c(c3)OCO4)CC2)C1=O,-25

(listing goes on)
compound,Tgondii IFNg
CCc1cnc(C)nc1N1CCN(CC(=O)Nc2ccccc2)CC1,5
CS(=O)(=O)NC[C@H]1CCC[C@]2(CCN(CC3CCOCC3)C2)O1,-1
O=C(CCCC(=O)Nc1cccnc1)Nc1cccnc1,19
N#C[C@@H]1[C@H](c2ccccc2C2=CCCCC2)[C@H](CO)N1S(=O)(=O)c1ccccc1,26

Only part of the results is shown, so the mix of outcomes need not match the whole.
